Mtb hypoxia rep: Mtb hypoxia fluorescent reporter inhibition. actives 0.1% (n = 300,000). fluorescence inhibition, % (concentration not given with the values). AID 1159583. M. tuberculosis hypoxia-regulated fluorescent reporter, fluorescence;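 active = 35 to 45% if threefold the growth effect, above 45% if 1.5-fold the growth effect; inactive = the rest, general growth blockers included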;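 note: wells of about 50 µL received 100 nL stock; 0% = vehicle wells and 100% = reference inhibitor wells; whole bacteria with a GFP reporter of the hypoxia response; strong numbers were not always called active; many hits fall short of the cut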
Sa ugtP lethal: compounds lethal to S. aureus RN4220 ugtP deletion mutant; growth inhibition, % (concentration not given with the values); OD600 growth, 16 h; some inactives read as strong as hits; actives 0.54% (n = 330,000); AID 1259309;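 active = z-score under -3 and OD600 up to 0.15 on both plates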;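 note: plate controls were untreated wells for no effect and antibiotic for full effect; wells of about 80 µL received 100 nL stock; the first replicate is given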
Sa RN4220 lethal: S. aureus RN4220 growth inhibition; actives 0.33% (n = 330,000); OD600, 16 h; inhibition, % (test concentration not listed);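 active = z-score of -3 or lower and OD600 up to 0.18 on both plates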;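 note: plate controls were untreated cells for no effect and reference antibiotic for full effect; stock transfer was 100 nL into about 80 µL; one replicate is shown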
BJeLR viability: kills HRASV12-expressing BJeLR cells; BJeLR (HRASV12) viability, CellTiter-Glo ATP luminescence, 48 h; reference of the scale not given here; inhibition, % (concentration not given with the values); actives 0.17% (n = 300,000);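 active = replicate mean above 50%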;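 note: 50 nL library stock added to about 25 µL; numbers are from one replicate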
PrP 5UTR inh: inhibition of PrP 5' UTR reporter expression; cell-based PrP 5' UTR mRNA reporter, plate reader; inhibition, % (no concentration beside the values); actives 0.35% (n = 340,000); AID 488862;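 active = every replicate at 50% or more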;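 note: 0 = median of the neutral control wells; tested in H4 reporter cells; numbers are from one replicate; inactives centre near -14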
Bead autofluor: compound fluorescence in toxin protease inhibitor counterscreen; compound autofluorescence counterscreen, microsphere flow cytometry; active compounds read high; fluorescence intensity (no concentration beside the values); actives 3.1% (n = 360,000); AID 624483;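 active = at least 3 SD above the mean of all compounds, about 16000 in these data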;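 note: 100 nL of 1 mM stock went into each well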
Mtb hypoxia rep growth: also measured in Mtb hypoxia rep; calls as there; growth inhibition, %; measured here: M. tuberculosis growth (absorbance);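 0% = vehicle and 100% = reference antibiotic; read after six days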
The depositor's hits bear a star; . = not tested or not shown.

Each structure is followed by: Mtb hypoxia rep	Mtb hypoxia rep growth	Sa ugtP lethal	Sa RN4220 lethal	BJeLR viability	PrP 5UTR inh	Bead autofluor
#1 CN(C)C(=O)N1CCN(C(=O)N(C)C)CC1
→ 9	6	1	1.1	0	-23	9365
#2 Cc1ccc(S(=O)(=O)Cc2ccc(C(=O)N3CCN(c4ccccn4)CC3)o2)cc1
→ .	.	.	.	0	-7	5465
#3 Cc1ccc(C)c(OCCC(=O)NNC(=O)c2ccncc2)c1
→ 3	-6	7	6.7	-6	-22	5859
#4 Cc1ccsc1C(=O)N(c1nc2ccccc2s1)c1c(C)cccc1C
→ 5	-3	27	-3.4	-1	-12	4063
#5 CCNc1nc(NCC)n2c(SCC(=O)c3ccc(C(C)C)cc3)nnc2n1
→ 0	-4	3	3.5	-2	-9	2560
#6 O=Nc1c2nc3ccccc3n(O)c-2c2ccccc12
→ -72	-8	90*	9.1	5	-30	8918
#7 NCCc1nnc(SCC(N)=O)o1
→ 6	3	-3	2.2	-7	-60	10327
#8 Cc1c(C(C)C)c(=O)n(-c2ccc(S(=O)(=O)NCc3ccccc3)cc2)n1C
→ 6	0	4	8.0	9	8	3470
#9 Cc1ccc(S(=O)(=O)Nc2cc(C(=O)O)ccc2N2CCCCC2)cc1
→ 3	1	3	14	0	-3	23478*
#10 O=C(NNS(=O)(=O)c1ccc(F)cc1)c1ccccc1F
→ 4	7	9	1.8	3	-25	3449
#11 Cc1cccc(OCc2nnc(SCC(=O)N3c4ccccc4Sc4ccc(Cl)cc43)o2)c1
→ 6	1	3	0.5	-3	-32	2418
#12 CCn1c(SCC(=O)N/N=C/c2cc(OC)c(OC)c(OC)c2)nc2ccccc21
→ .	.	.	.	-3	-17	2062
#13 CC1Cc2ccccc2N1C(=O)c1ccc2snnc2c1 (configuration not stated)
→ 0	7	-6	-0.3	.	-8	8468
#14 CCc1ccccc1NC(=O)CNC(=O)c1cccc(S(=O)(=O)N2CCN(Cc3ccccc3)CC2)c1
→ .	.	.	.	-1	-13	5874
#15 O=C(CSc1nc2c(oc3ccccc32)c(=O)n1CC1CCCO1)NCc1ccccc1 (configuration not stated)
→ 9	8	4	2.0	14	-22	5641
#16 Cc1ccc(OCCn2c(C3CC(=O)N(Cc4ccccc4)C3)nc3ccccc32)cc1 (configuration not stated)
→ -1	1	-5	42	5	-9	4297
#17 CC(NS(=O)(=O)c1ccc2ccccc2c1)c1ccccn1 (configuration not stated)
→ 2	2	6	6.7	.	-8	2743
#18 Cc1onc(-c2c(F)cccc2Cl)c1C(=O)c1ccccc1O
→ -6	9	-4	5.2	-4	-11	.
#19 Cc1cccc(C(C)C)c1NC(=O)CSc1nncn1C
→ 12	2	-4	8.2	-15	.	9885
#20 CCOc1cc(NC(=O)c2ccco2)c(OCC)cc1NC(=O)CCc1ccccc1OC
→ .	.	6	9.9	10	-3	2607
#21 COc1ccc([N+](=O)[O-])cc1NC(=O)COC(=O)c1ccccn1
→ -5	7	2	10	-4	-19	4379
#22 CCc1cccc(CC)c1-n1c(SCc2cc(=O)n3ccsc3n2)nnc1-c1cccnc1
→ 4	0	-1	12	-2	.	9341
#23 CC1(C)OC2CC3C4CC(F)C5=CC(=O)C=C[C@]5(C)C4C(O)C[C@]3(C)[C@]2(C(=O)CO)O1 (some centres not stated)
→ 3	-3	-4	1.0	.	.	.
#24 O=C(NCCc1ccccc1)C1CCN(S(=O)(=O)c2cccs2)CC1
→ 4	-2	14	-4.1	6	-37	6839
#25 COc1ccc(CCNC(=O)Cn2c(=O)n(Cc3ccco3)c(=O)c3ccc(Cl)cc32)cc1OC
→ .	.	12	-6.0	-7	-10	4622
#26 O=C(Nc1nc(-c2cccc3ccccc23)cs1)c1ccc2c(c1)S(=O)(=O)c1ccccc1C2=O
→ 12	1	9	1.3	7	-11	4586
#27 CC(=C1C(=O)c2ccccc2C1=O)N1CCN(C/C=C/c2ccccc2)CC1
→ 6	16	-4	5.1	-4	-10	4344
#28 Cc1ccc(/C=N/Nc2nnc(Cc3ccccc3)c(=O)[nH]2)o1
→ .	.	.	.	-4	-18	2555
#29 COc1cccc(NC(=O)Cn2c(=O)n(CCC(=O)NCc3ccco3)c(=O)c3ccccc32)c1
→ -9	-12	-1	1.5	-5	-21	4257
#30 Cn1c(N)c(C(=O)COC(=O)Cc2ccc(Br)cc2)c(=O)n(C)c1=O
→ 2	2	0	1.6	.	5	2864
#31 COc1ccc(NC(=O)N(CCCN(C)C)Cc2cc3cc(OC)ccc3[nH]c2=O)cc1
→ 2	-6	11	1.3	0	-17	2640
#32 O=S(=O)(NC1CCCCCC1)c1ccc(Br)s1
→ 8	11	-7	7.2	-10	6	4763
#33 COc1ccc(CNC(=O)C(c2ccco2)N(C(=O)c2ccccn2)c2ccccc2)cc1 (configuration not stated)
→ 4	8	2	6.9	-18	-15	4508
#34 Cc1ccsc1C=NNC(=O)Cc1cc(=O)[nH][nH]1
→ 2	7	5	11	.	.	.
#35 COc1cc(SC#N)ccc1N=Cc1c(C)[nH]n(-c2cccc3ccccc23)c1=O
→ -1	4	-3	-19	2	.	.
#36 N#Cc1ccsc1NC(=O)c1cccc(-n2cnnn2)c1
→ -7	5	-2	2.3	2	-22	5144
#37 Cc1ccc(NC(=O)CC2S/C(=N/N=C/c3c[nH]c4ccccc34)NC2=O)cc1 (configuration not stated)
→ .	.	.	.	-1	-9	6546
#38 C=CCn1c(C)cc(-c2csc(NC)n2)c1C
→ -7	7	30	-10.0	.	-15	2889
#39 Cc1cccc(C)c1NC(=O)N1CCCC1C(=O)Nc1ccc(-n2cnnn2)cc1 (configuration not stated)
→ 1	5	5	4.9	-8	-21	3907
#40 COc1ccc(N(C(C)=O)S(=O)(=O)c2cccs2)cc1
→ .	.	1	1.1	5	-10	4373
#41 COCC(=O)Nc1cc(C)cn(Cc2ccccc2Cl)c1=O
→ 16	9	8	1.6	10	-39	4281
#42 CCOc1ccc(NC(=O)CCN2CCN(S(=O)(=O)c3ccc(OC)cc3)CC2)cc1
→ 15	-1	4	2.8	-9	-23	10434
#43 O=C1CN=C(Nc2ccccc2Cl)N1c1ccccc1
→ 2	1	-5	-13	-1	6	3200
#44 Cc1ccc(C(=O)N2CCN(c3cnn(C)c(=O)c3Cl)CC2)cc1
→ 11	6	2	7.4	-5	-19	2438
#45 CCC1S/C(=C(\C#N)C(N)=O)N(c2ccc(F)cc2)C1=O (configuration not stated)
→ .	.	-3	6.8	-4	-19	2501
#46 CCOc1ccc(NC(=O)CSc2ccc(-c3ccco3)nn2)cc1
→ -1	-6	-9	3.6	-5	-24	5875
#47 Fc1ccc(N2N=C(c3cccs3)CC2c2ccco2)c(F)c1 (configuration not stated)
→ 3	7	37	-9.2	8	-13	20931*
#48 CC(=O)Oc1ccccc1C(=O)C=Cc1cccc([N+](=O)[O-])c1
→ 17	13	10	17	.	-46	4005
#49 COc1cc(C2OCC3C(c4ccc(OC5OC(CO)C(O)C(O)C5O)c(OC)c4)OCC23)ccc1O (configuration not stated)
→ .	.	-5	1.7	-10	-23	5473
#50 CCC(=O)N(Cc1ccc(C)cc1)Cc1cc2cc3c(cc2[nH]c1=O)OCO3
→ -3	14	-4	0.0	0	-3	23631*
#51 CC(C)(C)CC(C)(C)NCC(O)COCCOc1ccc(Br)cc1 (configuration not stated)
→ 8	13	-18	-4.6	-7	-4	2145
#52 O=C(CSc1ccc(Cl)cc1)NCc1ccco1
→ 12	0	4	1.7	4	-26	4326
#53 COC(=O)/C=C1/S/C(=N/N=Cc2ccc(N(C)C)cc2)NC1=O
→ 0	1	2	2.3	.	.	.
#54 CCn1cc(C(=O)N2CCN(c3ccccn3)CC2)c(=O)c2cc(S(=O)(=O)N(C)C3CCCCC3)ccc21
→ 6	6	-1	8.0	5	0	4242
#55 CCCCN1CCCCC1C(=O)Nc1c(C)cc(C)cc1C (configuration not stated)
→ 0	2	15	6.6	-3	-3	4260
#56 COc1ccccc1NS(=O)(=O)c1ccc(NN=C2CCCC2)c([N+](=O)[O-])c1
→ -8	6	-8	-3.6	3	-27	2395
#57 O=C(N/N=C/C(Br)=C/c1ccccc1)c1cc(-c2ccco2)[nH]n1
→ .	.	.	.	5	-14	4829
#58 CC(C)OC(=O)c1nnc(Cc2ccc(Cl)cc2)o1
→ .	.	1	-0.3	-15	5	5721
#59 Cc1oc(-c2ccc(Cl)cc2)nc1CN1CCCC(C(=O)NCc2ccco2)C1 (configuration not stated)
→ 5	7	-3	-0.8	2	6	9071
#60 O=C(CN1CCNCC1)NCCSc1ccc(Cl)cc1
→ -4	-1	6	8.0	-3	-6	2726

Continuation:
nr | Structure | Mtb hypoxia rep | Mtb hypoxia rep growth | Sa ugtP lethal | Sa RN4220 lethal | BJeLR viability | PrP 5UTR inh | Bead autofluor
61 | O=C(CN1CCN(C(=O)C2CC2)CC1)Nc1ccc(Cl)cc1F | 5 | 11 | -4 | -0.8 | . | -19 | 5473
62 | Cc1c(CCC(=O)O)c(=O)oc2cc3occ(-c4ccc(Br)cc4)c3cc12 | 18 | 8 | 17 | 12 | 2 | -15 | 5269
63 | O=C(NCc1ccccn1)C1CCCCC1 | 17 | 15 | 14 | 4.1 | 0 | -6 | 4266
64 | CCCCC1SC(=NN=Cc2ccc(OC)cc2)N(Cc2ccc(OC)cc2)C1=O (configuration not stated) | 20 | 6 | 23 | -3.8 | . | . | .
65 | COC(=O)CCc1nc2ccccc2nc1OC | -8 | -10 | 3 | -0.1 | -5 | 9 | 4077
66 | CCn1c(Cl)c(C=O)s/c1=N\S(=O)(=O)c1ccccc1 | . | . | . | . | 16 | -17 | 3197
67 | CC(=O)Nc1ccc2nc(NS(=O)(=O)c3ccc(C)cc3)sc2c1 | 9 | 3 | 11 | -3.9 | -6 | -5 | 4374
68 | COc1cc(NC(=O)Cc2nn(C)c(=O)c3ccccc23)cc(OC)c1OC | 3 | 3 | -2 | 1.3 | -18 | 12 | 17080*
69 | COC(=O)Cc1ccc2c3ccccc3n(C)c2c1 | -1 | 6 | 0 | 9.6 | 0 | -16 | 9128
